High-throughput results: PubChem BioAssay, National Center for Advancing Translational Sciences (NCATS)
Cruzain Triton = inhibitors of Trypanosoma cruzi cruzain with detergent | Potency, µM, for inactives: max response, negative = inhibition, most hits filed as inhibitors | P25779 | purified cruzain, Z-FR-AMC fluorescence, 0.01% Triton | AID 1478 | actives 0.43% (n = 200,000);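 also: plate controls were neutral wells for no effect and buffer without enzyme for full effect; nearly all actives have a fitted effect of over 40% in size; top concentration of the series not given in the record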
Target sequence (P25779 123-467 limits assumed): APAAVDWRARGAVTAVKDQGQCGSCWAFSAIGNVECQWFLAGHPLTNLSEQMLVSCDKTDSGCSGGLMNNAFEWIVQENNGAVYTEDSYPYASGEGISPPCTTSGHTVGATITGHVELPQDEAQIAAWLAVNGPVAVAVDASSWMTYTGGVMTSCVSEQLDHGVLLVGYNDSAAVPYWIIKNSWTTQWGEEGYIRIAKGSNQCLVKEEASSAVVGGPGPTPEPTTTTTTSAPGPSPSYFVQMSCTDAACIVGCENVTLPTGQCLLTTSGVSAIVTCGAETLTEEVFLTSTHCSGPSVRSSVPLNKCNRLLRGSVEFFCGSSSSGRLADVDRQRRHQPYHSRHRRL
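Cruzain (1.5 nM) preincubated 15 min at RT with compound in 100 mM sodium acetate pH 5.5, 5 mM DTT, 0.01% Triton X-100. Reaction started with 2 uM Z-FR-AMC; AMC fluorescence (ex 360/em 450 nm) change over 60 s gave rate.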
Cruzain inh noDet = inhibitors of Trypanosoma cruzi cruzain without detergent; actives 2.3% (n = 200,000); purified cruzain, Z-FR-AMC fluorescence, no detergent; Potency, µM, for inactives: max response, negative = inhibition, actives largely listed as inhibitors; P25779;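 also: plate controls were enzyme without inhibitor for no effect and buffer without enzyme for full effect; nearly all actives have a fitted effect of over 40% in size; top concentration of the series not given in the record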
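Detergent-free condition (0.00005% Triton X-100) in acetate buffer pH 5.5 with DTT. 1.5 nM enzyme and compound were pre-mixed 15 min, then 2 uM Z-FR-AMC substrate added; reaction progress from fluorescence change between first and third reads (60 s).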
StopGo reporter = FMDV 2A StopGo reporter, luciferase signal | human cells with a luciferase reporter of 2A StopGo recoding; control for the full effect not named in the record | Potency, µM (top dose mostly 57.9 µM), for the others: at the top dose signal change, negative = less light | actives 1.2% (n = 410,000) | AID 1159524; active = well fitted falling curve with a large enough effect; inconclusive = small, poorly fitted or top-dose-only effect; inactive = no such curve, though single readings can be large or run the other way; tested in HEK293T cells; also: nearly all actives have a fitted effect of over 45% in size; luciferase light after 4 h
Numbers without * were called inactive; ? = inconclusive; / = no result given; & = joins results of further samples; [ ] = another dose, or the depositor's remark. Unless noted, calls follow the shape of the dose curve; as a rule, active = well fitted curve in the direction sought with a large enough effect; inconclusive = small, poorly fitted or top-dose-only effect, or another doubt; inactive = no such curve, though single readings can be large; an effect the other way counts as inactive or inconclusive. Unless noted, % is scaled to controls: 0 for no effect and ±100 for the full control effect; potency is read from the fitted curve at half-maximal effect.

SMILES	Cruzain Triton	Cruzain inh noDet	StopGo reporter
CCCC[C@@H](C=O)NC(=O)[C@H](CC(C)C)NC(=O)OCc1ccccc1	/	/	-5%
COc1ccc(CNC(=O)C2CCCN2c2nc(C)c3ccccc3n2)cc1 (configuration not stated)	/	/	-2%
NC(C(=O)O)c1cccc(O)c1 (configuration not stated)	/	/	-15%
COc1cccc(-c2nc3cc4c(cc3cc2CN(C(=O)c2cc(C)nn2C)C2CC2)CCC4)c1OC	/	/	?
Cc1ccc(-c2ccnc(-n3ncc(C(=O)N4CCCCC4c4cccnc4)c3C3CC3)n2)o1 (configuration not stated)	/	/	-10%
CC1(C)c2[nH]c3ccccc3c2C[C@@H]2C(=O)N(Cc3ccco3)C(=O)N21	/	/	0%
Cc1c(C(=O)N2CCCCCC2)sc2ncnc(NCC3CCCO3)c12 (configuration not stated)	/	/	6%
COc1cccc(OC)c1CN1CCC2(CCC(CNC(=O)c3ccccc3)O2)CC1 (configuration not stated)	/	/	-11%
NC(=O)c1ccccc1Nc1nc(NCCO)nc(N2CCCC2)n1	/	/	-8%
CS(=O)(=O)c1ccc(C(=O)OCC(=O)N2CCN(CCC3CCCCC3)CC2)cc1[N+](=O)[O-]	/	/	25µM*

Entries of single compounds, quoted from the list. Values in the order: Cruzain Triton | Cruzain inh noDet | StopGo reporter
Shown for NC(=O)c1ccccc1Nc1nc(NCCO)nc(N2CCCC2)n1 : / | / | -8%
Shown for Cc1c(C(=O)N2CCCCCC2)sc2ncnc(NCC3CCCO3)c12 (configuration not stated) : / | / | 6%

Next results
SMILES	Cruzain Triton	Cruzain inh noDet	StopGo reporter
C#Cc1cccc(C(=O)NCc2nc(-c3cccc(NC(=O)c4ccccn4)c3)oc2C)c1	/	/	37%[activator]
COc1ccc(/C=C/C(=O)N2CCc3c(cnc(C)c3CNS(=O)(=O)c3cccs3)C2)cc1	/	/	-7%
CC1=C(C(=O)OC(C)C)[C@@H](c2cccc3nonc23)C([N+](=O)[O-])=C(C)N1	/	/	-13%
CC(C)(C)n1nc(Cc2cccc3ccccc23)c(C#N)c1N	/	/	-13%
COc1ccccc1C1CN(CCNC(=O)c2ccc3c(c2)OCCO3)Cc2ccccc2O1 (configuration not stated)	/	/	-5%
N#C/C(=C\c1cc(Cl)cc(Cl)c1)c1cccnc1	/	/	?
Cc1cc(C)nc(S[C@@H]2C[C@@H](C(=O)N3CCCN(C)CC3)N(Cc3cc(F)ccc3F)C2)n1	/	/	-4%
COC(=O)C1=C(C)NC(C)=C(C(=O)NCCCN2CCC(c3ccccc3)(c3ccccc3)CC2)C1c1ccc([N+](=O)[O-])cc1 (configuration not stated)	/	/	?
O=C(NCC1CCC2(CCN(Cc3ccc4ncccc4c3)CC2)O1)C1CCCO1 (configuration not stated)	/	/	-4%
CC1(C)[C@@H](O)C[C@H]2[C@](C)(O)[C@@H]3CC[C@H]4[C@@H](O)[C@@]3(C[C@@H](O)[C@@]21O)C[C@@]4(C)O	/	/	-10%&14%

Exported as labelled records: 4 of the compounds above.
> CC1=C(C(=O)OC(C)C)[C@@H](c2cccc3nonc23)C([N+](=O)[O-])=C(C)N1
- Cruzain Triton = /
- Cruzain inh noDet = /
- StopGo reporter = -13%

> CC(C)(C)n1nc(Cc2cccc3ccccc23)c(C#N)c1N
- Cruzain Triton = /
- Cruzain inh noDet = /
- StopGo reporter = -13%

> COc1ccccc1C1CN(CCNC(=O)c2ccc3c(c2)OCCO3)Cc2ccccc2O1 (configuration not stated)
- Cruzain Triton = /
- Cruzain inh noDet = /
- StopGo reporter = -5%

> N#C/C(=C\c1cc(Cl)cc(Cl)c1)c1cccnc1
- Cruzain Triton = /
- Cruzain inh noDet = /
- StopGo reporter = ?

Further compounds:
SMILES	Cruzain Triton	Cruzain inh noDet	StopGo reporter
CC(NC(=O)C1CCOCC1)c1nnc2n1CCN(Cc1cc3c(cc1Cl)OCO3)CC2 (configuration not stated)	/	/	-12%
CCC1CN(CCC(=O)NC2CCOC(C)(C)C2)Cc2cc(OC)ccc2O1 (configuration not stated)	/	/	-9%
COc1ccccc1-c1ccnc(-n2ncc(C(=O)NCc3cccnc3)c2C)n1	/	/	9%
Cc1noc(C)c1CCC(=O)N1CCOc2ccc(CN3CCN(c4ccccn4)CC3)cc2C1	/	/	?
CCOC(=O)c1ccc(-c2ccc3ncnc(N(C)Cc4sccc4C)c3c2)o1	/	/	?
Cc1occc1C(=O)NCCN1Cc2ccccc2OC(c2ccccc2F)C1 (configuration not stated)	/	/	4%
O=S1(=O)c2cccc3cccc(c23)N1CCCN1CCN(c2ccc(F)cc2)CC1	/	/	-25%
Cc1cc(C(=O)Nc2cccc(-c3nc(CNC(=O)c4cc5ccccc5[nH]4)c(C)o3)c2)c(C)o1	/	/	17%
Cn1c(-c2ccncc2)nc2cc(C(=O)N[C@H]3CCCCNC3=O)cc(NC(=O)C3CCC3)c21	/	/	-18%
O=C(O)c1ccc(-c2noc(-c3ccc(F)cc3)n2)cc1	/	/	-62%

Some values from above.
StopGo reporter, `CCC1CN(CCC(=O)NC2CCOC(C)(C)C2)Cc2cc(OC)ccc2O1` (configuration not stated) = -9%
StopGo reporter, `COc1ccccc1-c1ccnc(-n2ncc(C(=O)NCc3cccnc3)c2C)n1` = 9%
StopGo reporter, `COc1ccccc1C1CN(CCNC(=O)c2ccc3c(c2)OCCO3)Cc2ccccc2O1` (configuration not stated) = -5%
StopGo reporter, `CC1=C(C(=O)OC(C)C)[C@@H](c2cccc3nonc23)C([N+](=O)[O-])=C(C)N1` = -13%
StopGo reporter, `NC(=O)c1ccccc1Nc1nc(NCCO)nc(N2CCCC2)n1` = -8%
StopGo reporter, `NC(C(=O)O)c1cccc(O)c1` (configuration not stated) = -15%

The listing continues.
SMILES	Cruzain Triton	Cruzain inh noDet	StopGo reporter
Cc1cc(CNC(=O)c2cnn(-c3ncc4c(n3)-c3ccccc3CCC4)c2C2CC2)on1	/	/	21%
N[C@H](Cc1ccccc1)C(=O)O	/	/	-6%
Cc1nc(CC(=O)NCC2Cc3cc(F)cc(-c4ccc(F)c(C)c4)c3O2)cs1 (configuration not stated)	/	/	-5%
C[C@@](N)(C(=O)O)[C@@H]1C[C@@H]1C(=O)O	/	/	40µM*
COc1ccc(OC)c(-c2cc(Cl)c3c(c2)CC(CNC(=O)C(C)N2CCOCC2)O3)c1 (configuration not stated)	/	/	8%
CN(Cc1cnc2ccccn12)C1CCN(c2cccc(NC(=O)c3cccnc3)c2)CC1	/	/	-25%
COc1ccc2cc(CNCc3ccccc3Cl)c(N3CCCC(CO)C3)nc2c1 (configuration not stated)	/	/	26%
Cc1ccccc1C1(CC(=O)N2CCCC2c2nccs2)CC(=O)N(C2CCCC2)C1=O (configuration not stated)	/	/	49%[activator]
O=C(Nc1cc(C(F)(F)F)cc(C(F)(F)F)c1)c1cc(Cl)ccc1O	/	/	?
COc1ccccc1C(=O)N(Cc1cc2cc3c(cc2nc1N(C)C)OCO3)CC1CCCO1 (configuration not stated)	/	/	11%
Cc1ncc2c(c1CNS(=O)(=O)N(C)C)CCN(C(=O)c1c(F)cccc1F)C2	/	/	-5%
CCOC(=O)C1CCCN(C(=O)c2cnn(-c3ncc4c(n3)-c3ccccc3CCC4)c2C2CC2)C1 (configuration not stated)	/	/	44%[activator]
Cc1ccc(C)c(CN2CCc3nnc(CNC(=O)c4cc(C)oc4C)n3CC2)c1	/	/	-21%
CS(=O)(=O)N1CCC2(CC1)CN(c1ncccn1)C2	-2.5%	16µM*	10%
Cc1noc(C)c1C(=O)N1CCC[C@@]2(CCN(Cc3ccc(C#N)cc3)C2)C1	2.3%	0%	-4%
CCOC(OCC)P(=O)(O)CCCNCc1ccc(Cl)c(Cl)c1	-1.3%	9%	-5%&-15%
CC1(C)C(=O)C=C[C@]2(C)C1CC(=O)[C@]1(C)C2CC[C@@]2(C)C(c3ccoc3)OC(=O)C3O[C@@]321 (some centres not stated)	1.0%	2%	18µM*
c1ccc(C[C@@H](c2ccccc2)N2CCCCC2)cc1	0.8%	7%	-2%
CN1CC(CO)=C[C@H]2c3cccc4[nH]cc(c34)C[C@H]21	4.0%	-2%	-5%
Cc1noc(C)c1C(=O)N1CCC2(CC1)CCN(c1ccncc1)CC2	-1.1%	-4%	-9%
CC(=O)N1CCC[C@@]2(CCN(Cc3cc(C(F)(F)F)cc(C(F)(F)F)c3)C2)C1	0.1%	-2%	2%
Cc1cc(C)c(S(=O)(=O)Nc2ccccc2C(F)(F)F)c(C)c1	-1.7%	2%	10%
CN1CCN(c2ncc3nc(-c4ccccc4)c(=O)n(Cc4ccc(F)cc4)c3n2)CC1	-11%	?	-9%
COc1cccc(Cn2c(=O)c(C)nc3cnc(N4CCN(C)CC4)nc32)c1	-4.3%	-4%	-15%
COc1ccccc1-c1nccc(NCc2cccnc2)n1	3.2%	14%	0%
CC[C@]1(O)CC(O[C@@H]2CC(N(C)C)C(O)C(C)O2)c2c(cc3c(c2O)C(=O)c2c(O)ccc(O)c2C3=O)C1C(=O)OC (some centres not stated)	-0.7%	-3%	-8%
O=C(c1ccncc1)N1CCC2(CC1)CN(c1ccccc1)C2	4.3%	-4%	-19%
COc1ccc(C(=O)N2CCC[C@@]3(CCN(Cc4ccncc4)C3)C2)cc1	5.4%	0%	0%
COCCn1c(=O)c(-c2ccc(OC)cc2)nc2cnc(N3CCOCC3)nc21	3.8%	12%	-1%
COCC(=O)N1CCC2(CC1)CN(C(=O)Nc1ccc(OC)cc1)C2	2.0%	5%	-9%
Cc1c(C)c2c(c(C)c1O)CCC(C)(CCCC(C)CCCC(C)CCCC(C)C)O2 (configuration not stated)	-2.2%	1%	?
Clc1ccccc1-c1nccc(NCCN2CCOCC2)n1	1.9%	-7%	19%
CC1C(=O)OC2C(O)C34C5CC(C(C)(C)C)C36C(OC(=O)C6O)OC4(C(=O)O5)C12O (configuration not stated)	9.3%	1%	-16%
COCCn1c(=O)c(-c2ccc(OC)cc2)nc2cnc(N3CCNCC3)nc21	-1.0%	3%	12%
COc1ccc(/C=C/C(=O)c2cc(O)ccc2O)cc1	-20%	-13%	0%
O=C(Oc1ccccc1)N1CCC[C@@]2(CCN(Cc3cc(C(F)(F)F)cc(C(F)(F)F)c3)C2)C1	-2.7%	2%	-14%
O=C(Nc1ccccc1)N1CCC2(CC1)CCN(C(=O)c1ccco1)CC2	8.5%	-21%	-1%
Cc1noc(C)c1-c1nc(NCCN2CCOCC2)c2ccccc2n1	3.0%	10%	-13%
CN1CCCC2(CCN(C(=O)c3ccco3)CC2)C1	2.2%	10%	-6%
COc1ccc(CNc2ncncc2-c2c(C)noc2C)c(OC)c1	2.0%	7%	-7%
O=S(=O)(c1ccccc1)N1CCC2(CCCN(C(c3ccccc3)c3ccccc3)C2)CC1	-1.2%	-4%	-6%
O=S(=O)(c1ccccc1)N1CCC2(CC1)CN(C(c1ccccc1)c1ccccc1)C2	-2.5%	28%	-18%
O=c1c(-c2cc(F)cc(F)c2)nc2cnc(N3CCNCC3)nc2n1CCc1ccccc1	-7.6%	6%	-12%
COc1ccc(-c2nc3cnc(N(C)C)nc3n(Cc3cccs3)c2=O)cc1	2.4%	-4%	-1%
N#Cc1cccc(NC(=O)N2CCCC3(CCN(C(=O)Oc4ccccc4)CC3)C2)c1	-1.7%	1%	-14%
c1ccc2c(NC3CCNCC3)nc(-c3ccoc3)nc2c1	2.9%	-5%	-12%
CC(=O)O[C@@H]1CC2C(C)(C)C(=O)C=C[C@]2(C)C2CC[C@]3(C)C(=CC[C@H]3C3CO[C@@H](C(C)(C)O)[C@H](O)C3)[C@@]21C (some centres not stated)	-0.5%	21%	-7%
CN1CCN(c2ncc3nc(-c4cccc(C#N)c4)c(=O)n(CCc4ccccc4)c3n2)CC1	-11%	?	-7%
CC1OCC23CC[C@@]4(C)CCC(C)(C)C[C@H]4[C@]2(C)CCC12C3CC[C@@]1(C)C2C(=O)CC(=O)[C@@H]1C (some centres not stated)	2.3%	4%	-10%
CCCCC/C=C\C/C=C\CCCCCCCC(=O)NCCO	-3.9%&0.6%	-2%&-7%	-8%[6.7 µM]
CCC(=O)c1c(O)cc(O)cc1O	1.9%	4%	-2%
O=c1c(-c2cccs2)nc2cnc(N3CCNCC3)nc2n1C1CC1	-1.9%	-2%	-16%

An excerpt; count on the stated rates, not on these rows.
